High-throughput results as filed in PubChem.
ClpP mod – qHTS Assay for Activators of ClpP | purified B. subtilis ClpP, FRET peptide cleavage, 20 min | ATP-dependent Clp protease proteolytic subunit (Bacillus subtilis (strain 168)), P80244 | Potency, µM (highest dose often 57.5 µM), for inactives: at the top dose activity change, negative = active | 340,000 tested, 1.9% active; active = well fitted falling curve with a large enough effect; inconclusive = small, poorly fitted or top-dose-only effect; inactive = no such curve, though single readings can be large or run the other way; also: potency is read from the fitted curve at half-maximal effect; the source files actives as falling curves though it sought activators and does not explain the sign; nearly all actives have a fitted effect of over 65% in size; many hits overshoot -100%
Target sequence (P80244 whole entry, looked up): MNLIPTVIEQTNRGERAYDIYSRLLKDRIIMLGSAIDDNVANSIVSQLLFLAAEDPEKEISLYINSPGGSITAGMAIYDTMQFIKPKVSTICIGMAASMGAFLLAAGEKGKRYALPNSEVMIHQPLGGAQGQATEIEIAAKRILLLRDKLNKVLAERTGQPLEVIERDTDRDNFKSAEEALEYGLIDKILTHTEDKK
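FRET quenching reversal measured ClpP activation: 10 microg/mL B. subtilis ClpP at pH 8 with the FRET-FV decapeptide, read at 430 nm after 320 nm excitation. The 20-min minus 0-min signal was scaled between DMSO/no-enzyme wells and ADEP (5.8 microM final).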
Sfp inh – Sfp phosphopantetheinyl transferase inhibition. Potency, µM, without a hit: max response, negative = inhibition, actives largely listed as inhibitors. Biochemical Sfp PPTase activity, qHTS. Q9F4F7. 310,000 tested, 3.5% active; active = well fitted inhibition curve with a large enough effect; inconclusive = small, poorly fitted or top-dose-only effect, or another doubt; inactive = no such curve, though single readings can be large or run the other way;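 also: the enzyme is Sfp with the accession as filed and its product quenches rhodamine fluorescence; potency is read from the fitted curve at half-maximal effect; 0% = enzyme reaction without inhibitor and -100% = no enzyme wells; top concentration of the series not given in the record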
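Reaction rates are the 30-min fluorescence difference (ex 525, em 598 nm) in wells containing 15 nM Sfp, 5 uM rhodamine-CoA and 12.5 uM BHQ-2-YbbR at pH 7.6 with 10 mM MgCl2.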
D2 agonist – agonists of human D2 dopamine receptor (beta-arrestin) | P14416 | DiscoveRx PathHunter D2 beta-arrestin, luminescence, 90 min; 100% = 57 uM dopamine signal | activation, % (concentration not given with the values) | 360,000 tested, 0.084% active; in the data active = activation above about 40%; inconclusive = about 15% to 40%; inactive = below about 15%; also: compound concentration not given in the record; the text of the record calls up to 30% inactive
Target sequence (P14416 whole entry, looked up): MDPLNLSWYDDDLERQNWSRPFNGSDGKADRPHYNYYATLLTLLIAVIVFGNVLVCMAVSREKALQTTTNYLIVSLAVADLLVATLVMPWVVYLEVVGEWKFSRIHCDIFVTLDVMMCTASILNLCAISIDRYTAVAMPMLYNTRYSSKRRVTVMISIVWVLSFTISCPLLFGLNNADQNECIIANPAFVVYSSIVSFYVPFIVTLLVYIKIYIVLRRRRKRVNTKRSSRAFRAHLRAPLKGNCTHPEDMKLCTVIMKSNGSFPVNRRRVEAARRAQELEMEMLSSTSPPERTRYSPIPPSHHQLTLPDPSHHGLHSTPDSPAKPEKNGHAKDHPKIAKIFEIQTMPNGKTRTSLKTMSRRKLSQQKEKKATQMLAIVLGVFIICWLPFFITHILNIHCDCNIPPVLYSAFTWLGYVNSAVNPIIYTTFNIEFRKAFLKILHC
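Agonist mode: compounds alone added to overnight-plated D2 PathHunter cells for 90 min at 37 C, with 57 uM final dopamine (EC100) defining full response. Beta-arrestin recruitment detected by chemiluminescent reagent, read after 1 h at ambient temperature.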
Menin-MLL FL inh – displaces fluorescein MLL peptide from human menin | Fluorescence polarization, fluorescein-MLL peptide displacement from menin | FP activity change, % at 61.4 µM | 290,000 tested, under 10 active; inconclusive = falling polarisation curve, or a change in total fluorescence; inactive = total fluorescence flat and polarisation flat or rising; no compound was filed as active; the % refers to the polarisation; negative = inhibition;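 also: % of control where 0% means no effect; inhibitors lower the polarisation; unlabelled MLL peptide was the positive control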
gsp antag – antagonizes gsp, the McCune-Albright syndrome mutation. gsp-mutant cells, cAMP HTRF, 30 min; control for the full effect not named in the record. Potency, µM (titrated, usually from 76.9 µM), without a hit: top-dose activity change, negative = inhibition, usual class: inhibitors. 340,000 tested, 0.4% active; active = falling curve of any shape with a large fitted effect; inconclusive = falling curve, mostly with a smaller effect; inactive = flat or rising curve; cell line not stated here;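 also: intracellular cAMP measured with PDE inhibitor Ro 20-1724 present during compound exposure; potency is read from the fitted curve at half-maximal effect; % is scaled to controls: 0 for no effect and ±100 for the full control effect; nearly all actives have a fitted effect of over 65% in size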
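Cells, 2000/well, grown 16–24 h in DMEM 10% FBS with 0.5 mg/ml G418, then compounds plus […] (300 uM addition stock), 30 min at 37C. cAMP read by HTRF (cAMP-d2 and anti-cAMP antibody-K in lysis buffer) after 30 min RT.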
PINK1 expr mod – PINK1 expression modulation | PINK1 immunofluorescence, high-content cytometry, 24 h | Potency, µM (doses to about 76.6 µM), for inactives: top-dose activation (PINK1 increase), usual class: activators | 410,000 tested, 0.2% active; active = well fitted activation curve with a large enough effect; inconclusive = small, poorly fitted or top-dose-only effect; inactive = flat fitted curve, though single readings scatter; cell line not stated here;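 also: potency is read from the fitted curve at half-maximal effect; % of control where 0% means no effect; nearly all actives have a fitted effect of over 65% in size; a mitochondrial uncoupler was the plate control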
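PINK1 protein, normally rapidly degraded, was detected by immunofluorescence after 24 hour compound treatment of a stable cell line. Titration data (5 concentrations) came from laser-scanning cytometry, with CCCP-treated wells as controls.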
gsp ag – agonists of gsp mutant (McCune-Albright syndrome). 340,000 tested, 0.13% active. AID 624287. Potency, µM (series often up to 76.9 µM), for the others: top-dose activation (cAMP increase), hits mostly activators. gsp mutant cells, cAMP HTRF, 30 min; control for the full effect not named in the record; active = well fitted activation curve with a large enough effect; inconclusive = small, poorly fitted or top-dose-only effect, or another doubt; inactive = no such curve, though single readings can be large or run the other way; cell line not stated here;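 also: phosphodiesterase inhibitor Ro 20-1724 added with compounds to block cAMP breakdown; potency is read from the fitted curve at half-maximal effect; nearly all actives have a fitted effect of over 60% in size; about a fifth of the inactives were tested at one dose only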
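Cells stably selected in G418 were plated at 2000/well, grown 16-24 hr, then given compounds in DMSO with the PDE inhibitor […] (300 uM solution added) for 30 min at 37C; cAMP was read by HTRF.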
Active calls of the source: *; ? = inconclusive; nt = no result given; [ ] = dose if it differs, or a comment.

SMILES	ClpP mod	Sfp inh	D2 agonist	Menin-MLL FL inh	gsp antag	PINK1 expr mod	gsp ag
O=C(NCc1ccco1)C1CCN(c2nnc(-n3cccc3)s2)CC1	0.4%	-16%	-2.7	1.6	0%	0.7%	-25%
O=C(c1ccc(-c2ccc([N+](=O)[O-])cc2)o1)N1CCCCCCC1	-6.2%	nt	4.7	nt	-5%	-1.4%	-1%
NS(=O)(=O)c1cccc(NC(=O)CSc2nn(-c3ccccc3)c(=S)s2)c1	-1.3%	-1%	0.7	7.5	-14%	1.4%	?
O=C(CCc1nnc2ccc(NCc3ccccc3)nn12)NCC1CCN(C2CCCC2)C1 (stereo not drawn)	-7.7%	18%	-1.0	nt	6%	0.7%	-2%
COc1ccccc1N1CCN(C(=O)c2ccc3c(=O)n4c(nc3c2)CCCCC4)CC1	1.6%	nt	-1.0	nt	-16%	7.9%	-12%
NNC(=O)c1[nH]c(-c2ccccc2)cc1-c1ccccc1	-6.7%	-1%	1.6	-2.4	-2%	7.2%	-14%
COc1cc(NC(=S)NCc2ccc(S(N)(=O)=O)cc2)c(OC)cc1Cl	-1.5%	-23%	-0.6	1.6	6%	1.3%	?
COc1cc(OC)cc(C(=O)Nc2ccc3c(c2)n(C)c(=O)n3C)c1	1.6%	17%	4.3	0.5	-11%	1.3%	-20%
Cc1cc(C(=O)CN2CCN(CC(=O)Nc3cccc(F)c3)CC2)c(C)n1C1CC1	0.0%	nt	-0.5	nt	-2%	1.5%	0%
CC1CCCCC1NC(=O)c1ccc(-n2cncn2)cc1 (stereo not drawn)	-0.7%	nt	6.6	nt	3%	1.5%	-19%
CC1(C)NC(=O)N(CCOCCOc2ccc3ccccc3c2Br)C1=O	-0.5%	-18%	-0.6	5.0	-37%	17%[38.3 µM]	43%
Cc1nc(C(F)(F)F)nc(Nc2ccc(Br)cc2)c1C#N	?	12%	-1.7	-1.1	-1%	4.2%	-3%
Cc1ccsc1C(=O)OCc1nnc(-c2ccccc2)o1	-20%	nt	-5.6	nt	-11%	1.3%	-3%[15.4 µM]
COc1ccc(N2C(=O)c3ccccc3NC23CCC(C)CC3)cc1 (stereo not drawn)	?	8%	-2.3	-1.0	4%	-5.5%[38.3 µM]	1%
CCSC1=C(C#N)C(c2ccc(F)cc2)CC(=O)N1 (stereo not drawn)	3.4%	-4%	-4.2	-0.3	1%	1.3%	6%
CCCC(=O)Nc1ccc2nc(SCC(=O)Nc3nccs3)sc2c1	3.4%	-13%	0.8	-0.8	7%	-1.8%	-28%
NC1=NC(c2cccc(Cl)c2)N(CCc2ccc(F)cc2)C(N)=N1 (stereo not drawn)	nt	-3%	-4.5	-10	3%	2.1%	6%
COc1ccc(NC(=O)COC(=O)c2cc(OC)c(OC)cc2NC(=O)c2ccco2)cc1OC	-20%	-17%	-1.3	-0.9	-15%	10%	15%
O=C(O)/C=C/C(=O)N1CCN(C(c2ccccc2)c2ccccc2)CC1	0.8%	11%	-7.4	0.8	-15%	-1.3%	?
CCOc1cc(/C=C2/NC(=O)NC2=O)cc(Br)c1OCc1ccc(C(=O)O)cc1	nt	8%	-5.3	15	-17%	-1.4%	-10%[15.4 µM]
CCOc1ccc(N/C(SCc2cccc([N+](=O)[O-])c2)=C(/C#N)C(N)=O)cc1	nt	-22%	-6.3	1.9	-12%	2.8%	-8%[15.4 µM]
COc1ccc(Nc2nc3ccccc3n3cnnc23)cc1	-22%	-1%	4.0	0.2	-4%	-1.2%[38.3 µM]	-1%
S=C(NC1CCCCC1)N1CCN(c2ccccn2)CC1	nt	28%	-3.6	2.3	-5%	1.4%	-8%[15.4 µM]
COc1cc(/C=N/O)c(Br)cc1OCC(=O)Nc1ccccc1C	2.2%	-12%	-0.5	0.4	3%	7.5%	-2%
N#Cc1ccc(N2CCOCC2)nc1	-11%	12%	-3.6	3.3	7%	2.5%	-4%
Following part.
SMILES	ClpP mod	Sfp inh	D2 agonist	Menin-MLL FL inh	gsp antag	PINK1 expr mod	gsp ag
Cc1ccc(C2=C/C(=C/c3cccnc3)C(=O)O2)c(C)c1	-0.2%	50µM*	7.7	17	-9%	2.3%	28%
CCCS(=O)(=O)N1CCCC(C(=O)Oc2ccc(Cl)cc2)C1 (stereo not drawn)	0.7%	21%	0.8	-1.5	2%	0.6%	3%[15.4 µM]
CC1=C(C(=O)OCc2ccccc2)C(c2ccccc2Cl)NC(=O)N1CCCC(=O)O (stereo not drawn)	0.0%	3%	-0.1	3.3	-6%	2.3%	nt
c1ccc2c(Nc3nc(-c4ccncc4)nc4ccccc34)cccc2c1	nt	6%	3.5	5.7	-29%	1.8%	-10%[15.4 µM]
Cc1cc(C)c(C#N)c(N2CCN(Cc3ccccc3)CC2)n1	-8.8%	14%	-0.4	4.4	6%	4.0%[38.3 µM]	-15%
O=C(COn1nnc2ccc(Cl)cc21)NCc1ccccc1	-2.4%	-2%	-0.7	-0.7	-4%[15.4 µM]	0.3%	6%
COc1cc2c(cc1OC)C(Cc1ccc(O)cc1)NCC2 (stereo not drawn)	2.1%	9%	-0.4	2.4	16%	0.3%	nt
CCN([C@H](CO)C(C)C)S(=O)(=O)c1ccccc1Br	1.5%	nt	-2.2	nt	8%	-0.1%	nt
C[C@H]1CN([C@@H](C)CO)C(=O)c2cccc(NS(=O)(=O)c3ccc(Cl)cc3)c2O[C@@H]1CN(C)CC1CCCCC1	0.1%	nt	3.0	nt	-16%	0.5%	-34%[inhibitor]
CCNc1nc(NC(C)CC)nc(Oc2ccc(=O)[nH]n2)n1 (stereo not drawn)	1.1%	22%	-0.8	0.7	14%	-0.6%[38.3 µM]	-34%[inhibitor]
CC(=O)Nc1ccc(NC(=O)C2Cc3c(-c4cccc(F)c4)ccnc3O2)cc1 (stereo not drawn)	-0.4%	nt	-3.7	nt	nt	1.0%	nt
CSCCC(NS(=O)(=O)c1ccc(C)cc1)C(=O)NCC(C)(C)N1CCOCC1 (stereo not drawn)	-2.1%	nt	-2.0	nt	-3%	-0.1%	-12%
Cc1cccc(C(=O)N2CCCC(CCC(=O)N3CCN(c4ccccn4)CC3)C2)c1 (stereo not drawn)	?	10%	-1.1	nt	3%	3.7%	5%
CCCCn1cnc2c(SCc3ccccc3F)nc(N)nc21	1.0%	nt	2.1	nt	9%	6.2%	-18%
CC(NC(=O)c1cccc(N2CCCC2=O)c1)c1ccc2c(c1)OCCO2 (stereo not drawn)	0.2%	12%	-0.6	-2.2	0%	-0.6%	?
CNC(=O)COC(=O)c1ccccc1C(=O)c1ccc(Cl)c([N+](=O)[O-])c1	-2.2%	0%	-0.8	1.1	-11%	0.3%	6%
N#Cc1cccc(NC(=O)COC(=O)c2ccc[n+]([O-])c2)c1	-4.1%	nt	-3.9	nt	-3%	-0.4%	0%[15.4 µM]
Cc1cc(C)c2cc(C#N)c(N3CCNCC3)nc2c1	-26%	nt	-10	nt	nt	2.2%	-10%
Cc1cc(OCC(=O)Nc2ccc(OCc3ccccc3)cc2)nc(C(C)C)n1	0.2%	17%	2.4	-3.2	11%	-1.3%	8%
COc1ccc(CCNC(=O)C(=O)NCC2CCCN2S(=O)(=O)c2ccc(OC)cc2)cc1 (stereo not drawn)	-1.6%	nt	1.6	nt	-27%	-0.5%	26%
COCCn1c(=O)c(-c2cccc(Cl)c2)nc2cncnc21	nt	14%	nt	-3.8	nt	-1.1%	nt
CCOC(=O)C1(C)/C(=N/Nc2cccc(Cl)c2)C(=O)C(=O)N1c1ccccc1 (stereo not drawn)	1.9%	6%	-3.4	0.6	-17%	2.2%	14%
CNC(=O)N(O)C1N(C)C(=O)N(Cc2ccccc2)C1(C)C (stereo not drawn)	0.8%	1%	-2.0	3.1	11%	0.4%[38.3 µM]	-19%
O=P(c1ccccc1)(c1ccccc1)c1nc(-c2ccccc2)oc1N1CCOCC1	-2.9%	-7%	-7.5	1.6	-15%	1.6%	-6%[15.4 µM]
Cc1ccc(-c2nn(-c3ccccc3)cc2/C=C/C(=O)O)o1	4.0%	-104%	0.5	-1.8	?	-0.9%	?
The list continues.
SMILES	ClpP mod	Sfp inh	D2 agonist	Menin-MLL FL inh	gsp antag	PINK1 expr mod	gsp ag
COc1cccc(NC(=O)Cn2c3ccccc3c3nc4n(c(=O)c32)CCCS4)c1	?	2%	-0.3	nt	19%	-0.4%	-4%
CCc1ccc2c(c1)NC(=O)C2(C)Cc1ccc(Cl)s1 (stereo not drawn)	0.1%	nt	-5.5	nt	nt	2.7%	nt
O=C(CCNC(=O)N1CC(=O)Nc2ccccc21)Nc1ccc(Cl)cc1	-1.0%	0%	-3.4	-7.5	-5%	2.2%	7%
CCC(C)(C)n1nnnc1CN1CCN(C(c2ccccc2)c2ccccc2)CC1	-3.2%	-6%	-2.7	-0.2	-17%	-0.9%	6%
C=CCNC(=S)NCc1ccc(CNC(=S)NCC=C)cc1	-6.0%	28%	-3.6	4.4	6%	-1.1%	-3%[15.4 µM]
CC1(C(=O)Nc2cccc(-n3cnnn3)c2)Cc2ccccc2C(=O)O1 (stereo not drawn)	35µM*	nt	-0.8	nt	-3%	-1.3%	2%
O=C(O)c1ccc2c3c(cccc13)C(=O)N(c1ccccc1)C2=O	nt	5%	4.2	2.2	1%	5.7%	31%
Cc1ccc2occ(/C=N/NC(=O)c3ccccc3C)c(=O)c2c1	194%	19%	-2.6	0.8	15%	-0.8%	-13%
CCN(C(=O)COC(=O)CCOc1ccccc1)c1c(N)n(Cc2ccccc2)c(=O)[nH]c1=O	-2.3%	nt	-1.6	nt	13%	1.0%	-59%[inhibitor]
OC(c1nc2ccccc2[nH]1)C(O)c1nc2ccccc2[nH]1 (stereo not drawn)	1.1%	7%	-4.1	-1.3	5%	0.4%	0%[15.4 µM]
O=C1OC(Cc2ccccc2)C(c2ccccc2)C1=O (stereo not drawn)	-9.0%	nt	-9.1	nt	1%	0.9%	25%
CC(C)CNC(=O)COc1ccc(Sc2ccc(OCC(=O)NCC(C)C)cc2)cc1	1.3%	17%	0.9	4.4	6%	17%	-16%
CC1(c2ccccc2)CC(C)(C)N2C(=O)Cc3cccc1c32 (stereo not drawn)	0.6%	-1%	3.5	4.1	3%	4.9%	-5%[15.4 µM]
